Mtb growth: Mycobacterium tuberculosis H37Rv growth inhibition, cell based, confirmatory dose response (AID 1949); M. tuberculosis H37Rv growth inhibition; most inactive calls were filed without a number and no value below 0 was filed; inhibition, % at 10 µg/mL; hits with a dose series show IC50 in µg/mL; 100,000 tested, 1.6% active;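 active = confirmed in a dose series; inconclusive = about 50% or more but not retested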;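 note: bacteria grown 7 days with compound before Alamar blue readout; 0% = untreated bacteria and 100% = reference antibiotic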
* hit, by the source's call; i = inactive; ? = inconclusive.

Start of the listing, in advance (16 entries):
SMILES	Mtb growth
O=C(Nc1nc2ccc(S(=O)(=O)N3CCCC3)cc2s1)c1ccco1	i
Cc1cc(OCC(=O)n2cnnc2N)ccc1Cl	i
CC(C)(C)c1ccc(C(=O)O/N=C(\N)c2ccccn2)cc1	48.0%
CCN(CC)C(=O)c1cn(-c2ccccc2)nc1-c1ccc(OC)c(OC)c1	i
Cc1cc([N+](=O)[O-])ccc1NC(=S)Nc1cccc(Cl)c1Cl	i
O=[N+]([O-])c1ccc2nc(CSc3ncnc4ccccc34)[nH]c2c1	i
Cc1ccc(-c2nc3cc(Cl)ccc3o2)cc1	5.5%
CC(=O)Nc1cccc(NC(=S)Nc2cccc(Cl)c2C)c1	i
CCOC(=O)c1sc(NC(=O)c2ccc(C)c(C)c2)c(C(=O)OCC)c1C	0.2%
COc1ccc(C2NC(=O)NC(C)=C2C(=O)Nc2ccccc2)c(Cl)c1O (stereo not drawn)	i
CN(c1ccc(C(=O)NC2CCCCCC2)cc1)S(=O)(=O)c1ccccc1	11.6%
Cc1nc(Nc2nc3ccccc3s2)nc2c1CCC2	5.4%
CC(=C1C2C=CC1C1C(=O)NC(=O)C21)c1ccccc1 (stereo not drawn)	i
COc1ccc(Br)cc1C(=O)NC(=S)Nc1ccc(Cl)c(C(=O)O)c1	i
COc1cc([N+](=O)[O-])ccc1NC(=O)COc1ccc2ccccc2c1Br	i
O=C(Nc1nnc(/C=C/c2ccc3c(c2)OCO3)s1)c1ccco1	2.1%

Main list, from the start:
SMILES	Mtb growth
O=C(Nc1nc2ccc(S(=O)(=O)N3CCCC3)cc2s1)c1ccco1	i
Cc1cc(OCC(=O)n2cnnc2N)ccc1Cl	i
CC(C)(C)c1ccc(C(=O)O/N=C(\N)c2ccccn2)cc1	48.0%
CCN(CC)C(=O)c1cn(-c2ccccc2)nc1-c1ccc(OC)c(OC)c1	i
Cc1cc([N+](=O)[O-])ccc1NC(=S)Nc1cccc(Cl)c1Cl	i
O=[N+]([O-])c1ccc2nc(CSc3ncnc4ccccc34)[nH]c2c1	i
Cc1ccc(-c2nc3cc(Cl)ccc3o2)cc1	5.5%
CC(=O)Nc1cccc(NC(=S)Nc2cccc(Cl)c2C)c1	i
CCOC(=O)c1sc(NC(=O)c2ccc(C)c(C)c2)c(C(=O)OCC)c1C	0.2%
COc1ccc(C2NC(=O)NC(C)=C2C(=O)Nc2ccccc2)c(Cl)c1O (stereo not drawn)	i
CN(c1ccc(C(=O)NC2CCCCCC2)cc1)S(=O)(=O)c1ccccc1	11.6%
Cc1nc(Nc2nc3ccccc3s2)nc2c1CCC2	5.4%
CC(=C1C2C=CC1C1C(=O)NC(=O)C21)c1ccccc1 (stereo not drawn)	i
COc1ccc(Br)cc1C(=O)NC(=S)Nc1ccc(Cl)c(C(=O)O)c1	i
COc1cc([N+](=O)[O-])ccc1NC(=O)COc1ccc2ccccc2c1Br	i
O=C(Nc1nnc(/C=C/c2ccc3c(c2)OCO3)s1)c1ccco1	2.1%
Cc1nn(C)c(C(=O)NNC(=S)Nc2ccc(F)cc2F)c1Br	i
COc1cccc(N2CCN(C(=S)NCCc3ccccc3)CC2)c1	i
CC(=O)c1cc2c(cc1NC(=O)CN1CCOCC1)OCO2	5.1%
CC(=O)NC1=NN(C(C)=O)C2(CCCC2)S1	i
Cc1c(CC(=O)O)c(=O)oc2cc(OCc3ccc(Br)cc3)ccc12	i
S=C(Nc1ccc(Cl)c(Cl)c1)N1CCCC1	1.3%
CC1CCN(CCCCOc2cccc(Br)c2)CC1	i
COc1cc2c(cc1OC)CN(C(=O)c1ccc(CNS(=O)(=O)c3cc(C)ccc3C)cc1)CC2	1.0%
COc1ccc(C(=O)Nc2nc(-c3ccc(CC(C)C)cc3)cs2)c(OC)c1	i
CN1CCN(S(=O)(=O)c2ccc(NS(=O)(=O)c3ccccc3)cc2)CC1	i
CC(=O)Nc1ccc(S(=O)(=O)Nc2ccc(S(=O)(=O)Nc3cc(Cl)ccc3C)cc2)cc1	i
O=C(N/C(=C/c1ccc(F)cc1)C(=O)N1CCCCC1)c1ccco1	i
COc1ccc(OC)c(NC(=O)c2cccc(F)c2)c1	i
CS(=O)(=O)N(CC(=O)NCCSC1CCCCC1)c1cccc(F)c1	i
Cc1ccc(C(NC(=O)C(F)(F)F)c2ccc(C)cc2)cc1	i
COc1ccc(C(=O)CSc2nc3c(cc2C#N)CCCC3)cc1OC	8.6%
C=CCNc1nnc(-c2ccncc2)s1	i
CCCCNCCOCCOc1ccccc1-c1ccccc1	i
O=C(Nc1ccccc1)Nc1nc(-c2ccc(Cl)cc2)cs1	i
CCOc1ccc(-c2c(C)sc3ncn(CC(=O)N4CCOCC4)c(=O)c23)cc1	i
CCN(c1cccc(C)c1)S(=O)(=O)c1cccc(C(=O)O)c1	i
O=C(Nc1ccc(F)cc1)c1cn(-c2ccccc2)nc1-c1ccc2c(c1)OCCO2	7.6%
Brc1ccc(CNCC2CCCO2)cc1 (stereo not drawn)	i
CC(C)(c1ccccc1)c1ccc(OCC(=O)Nc2ccc(S(N)(=O)=O)cc2)cc1	i
CC(=O)N1c2ccc(Cl)cc2C2C=CCC2C1c1cccc2ccccc12 (stereo not drawn)	4.8%
COc1cc(NC(=S)NCCc2ccc(OC)c(OC)c2)c(OC)cc1Cl	i
Clc1ccc(Oc2nc(N3CCOCC3)nc(N3CCOCC3)n2)cc1	i
COc1ccc(C(=O)Nc2ccc3nc(SCC(=O)Nc4ccccc4F)sc3c2)cc1OC	i
O=C(Oc1cccc(-c2nnco2)c1)N(c1ccccc1)c1ccccc1	6.0%
CNS(=O)(=O)c1ccc(NC(=S)Nc2cccc([N+](=O)[O-])c2)cc1	i
COc1cc(N2CCOCC2)ccc1/C=C(/C#N)c1nc2ccccc2[nH]1	2.0%
C=CCn1c(Cc2ccc(OC)c(Cl)c2)n[nH]c1=S	i
C=CCn1c(SCC(=O)c2c[nH]c3ccccc23)nnc1-c1[nH]c2ccc(OC)cc2c1CC	17.8%
CCOc1c(OC)cc(Cl)cc1C1NC(=O)NC(C)=C1C(=O)OC(C)(C)C (stereo not drawn)	i
Next records
SMILES	Mtb growth
COc1ccc(Cl)cc1NC(=O)c1c(F)c(F)c(F)c(F)c1F	?
COc1ccc(NC(=O)c2ccccc2NS(C)(=O)=O)c(OC)c1	1.4%
CCC(CC)c1nc2ccccc2n1CC	i
S=C(NCc1ccc(Cl)cc1Cl)Nc1cccnc1	i
COc1ccccc1N1C(=O)c2cccc3cc(Br)cc(c23)C1=O	i
COc1ccc(C(=O)Oc2c(Sc3ccccc3)c(C)nn2C(C)(C)C)cc1OC	i
COc1cccc(NC(=S)NC(=O)CC(C)(C)C)c1	13.4µg/mL*
COc1ccc(-n2c(SC)nc3ccc(I)cc3c2=O)cc1	9.0%
CCOc1ccc(NC(=O)CC2C(=O)N(c3ccc(Cl)cc3)C(=O)N2Cc2ccc(OC)cc2)cc1 (stereo not drawn)	i
Cc1ccc(OCC(=O)N2CCN(C(=O)c3cccnc3)CC2)cc1	i
COc1ccc(C(C)C)cc1S(=O)(=O)NC1CCCCC1	i
Cc1ccc(S(=O)(=O)N(Cc2ccccc2)c2ccccc2C(=O)Nc2c(C)cccc2C)cc1	i
C=CCc1ccc(OCCOCCOc2cc(C)ccc2C)c(OC)c1	3.5%
COc1cc(C(=O)Oc2ccc3c(-c4ccccc4)cc(=O)oc3c2C)cc(OC)c1OC	i
CCOc1ccc(C(=O)n2cnnc2N)cc1	i
CC(C)NCCOc1ccc(Cl)cc1C(C)(C)C	i
O=C(O)C1CCC(CNS(=O)(=O)c2ccc(Br)cc2)CC1 (stereo not drawn)	i
CCN(c1ccccc1)S(=O)(=O)c1ccc(N2CCCCC2)nc1	i
O=C(CC12CC3CC(CC(C3)C1)C2)NC(=S)Nc1ccccc1N1CCCCC1	4.3%
O=C(O)Cc1nnc(-c2cccnc2)n1Cc1ccccc1	i
O=C(CSc1nc(-c2ccccc2)cc(=O)[nH]1)Nc1ccc(Br)cc1	i
O=C(NCCc1ccccc1)c1cnn2cc(Br)cnc12	i
O=C(Nc1nc2ccccc2s1)c1ccc([N+](=O)[O-])cc1	i
CN(C)c1cccc(NC(=O)C2(C)CC2(Cl)Cl)c1 (stereo not drawn)	i
C1CCc2c(c(N3CCOCC3)nc3sc4c(NCCN5CCOCC5)nnnc4c23)C1	0.2%
CC(C)(C)C(=O)N1CCN(c2ccc([N+](=O)[O-])c(N3CCCC3)c2)CC1	i
O=C(CSc1ccc2ccccc2c1)Nc1ccc(F)cc1F	1.8%
CC1(C)CN=C(Nc2ccc(C(F)(F)F)cc2)S1	?
COc1ccc(OC)c(S(=O)(=O)N2CCC(C(=O)Nc3cccc(C(C)=O)c3)CC2)c1	i
Cc1cc(NC(=O)CSc2nnc(COc3c(C)cccc3C)n2C)ccc1Br	i
CCCOc1ccc(S(=O)(=O)N2CCN(c3ccccc3)CC2)cc1	0.3%
CC1=C(C(=O)Nc2cc(C)ccc2C)C(c2cccs2)NC(=O)N1 (stereo not drawn)	i
N#Cc1ccc(-c2cccs2)nc1SCCc1ccccc1	i
COc1ccc(NC(=S)Nc2cc(C(F)(F)F)cc(C(F)(F)F)c2)c(OC)c1	i
Cn1c(=O)n(C)c2cc([N+](=O)[O-])c(N3CCN(S(=O)(=O)c4ccccc4)CC3)cc21	i
Cc1ccc(S(=O)(=O)Cc2cccc(C(=O)OCc3cccc4ccccc34)c2)cc1	2.3%
CCOC(=O)c1c(N)n[nH]c1-c1ccc(OC)cc1	i
CCOc1c(Cl)cc(CNC(C)C(O)c2ccccc2)cc1OC (stereo not drawn)	i
Cc1cccc(Nc2nc(-c3ccc(O)c(O)c3)cs2)c1	i
Cc1c(C)c2ccc(OCC(=O)C(C)(C)C)cc2oc1=O	4.1%
Cc1ccc(OC(F)F)c(NC(=O)Nc2ccc([N+](=O)[O-])cc2)c1	22.4µg/mL*
COc1ccc(Cl)cc1C(=O)NC(=S)Nc1ccc(N2CCCC2)c(Cl)c1	2.3%
COc1cc(NC(=O)Cn2nc(C(F)(F)F)c3c2CCCC3)cc(OC)c1OC	i
COc1cc2ccccc2cc1C(=O)NC(=S)Nc1cc(-c2nc3ccccc3s2)ccc1C	i
Cc1occc1C(=O)Nc1ccc(Oc2ccccc2)cc1	1.1%
Cc1cc(NC(=O)c2cnn3cc(Br)cnc23)n(-c2ccccc2)n1	i
O=C(COc1cc(Cl)c(Cl)cc1Cl)N1CCc2ccccc2C1	i
COc1ccc(S(=O)(=O)N(C)CCc2ccccn2)cc1	i
Fc1c(F)c(F)c(Cn2ccc(NC(=S)Nc3ccc(Br)cc3Cl)n2)c(F)c1F	i
CCc1ccc(NC(=O)CCCOc2ccc(OC)cc2)cc1	28.9%
(continued)
SMILES	Mtb growth
Cc1cccc2nc(C(F)(F)F)nc(=O)n12	i
CCSc1nc2c(c(=O)[nH]1)C(c1cccc(F)c1)C1=C(CC(C)(C)CC1=O)N2 (stereo not drawn)	8.4%
O=C(NCc1ccccc1)c1nc2ncccn2n1	i
CCOc1ccc(/C=C2\SC(=S)N(CCCC(=O)O)C2=O)cc1	i
CN(C(=O)Oc1ccccc1OC(=O)N(C)c1ccccc1)c1ccccc1	2.0%
CCN(C(=O)c1ccccc1O)c1c(C)n(C)n(-c2ccccc2)c1=O	i
Cc1ccc(CNC(=O)CSc2nnc(-c3ccccc3)n2C)cc1	i
COc1ccc(C2(CNC(=O)c3ccc(Br)o3)CCCC2)cc1OC	i
CCCOc1ccc(C2C(C(=O)c3cccs3)=C(O)C(=O)N2CCCn2ccnc2)cc1OC (stereo not drawn)	i
CCOc1ccc(S(=O)(=O)NCCSc2ccccc2)cc1	i
CC12CN3CC(c4ccccc4)(CN(C1)C31CCCCC1)C2=O	0.8%
CC1CC(C)(C)N(C(=O)CN2C(=O)CCC2=O)c2ccccc21 (stereo not drawn)	1.6%
O=C(O)c1cccc(Nc2ncnc3ccc(I)cc23)c1	i
CCCCN(CCCC)C(=O)c1sc2nc(N3CCOCC3)c3c(c2c1N)CC(C)(C)OC3	i
N/C(=N/S(=O)(=O)c1cccs1)c1ccccc1	0.7%
CCCOc1cccc(C(=O)NC(=S)Nc2ccc(C(=O)O)cc2)c1	i
COc1ccc(OC)c(NC(=O)C2CCN(S(=O)(=O)c3ccc(Cl)cc3)CC2)c1	i
N#Cc1cc2c(nc1SCC(=O)OCc1ccccc1)CCC2	0.41µg/mL*
Cc1c(NC(=O)c2cc3c(=O)n4ccccc4nc3s2)c(=O)n(-c2ccccc2)n1C	i
Cc1cc(Br)ccc1OCC(=O)NC1C2CC3CC(C2)CC1C3 (stereo not drawn)	i
N#CC1=C(SCC(=O)Nc2cccc3ccccc23)NC(=O)CC1c1cccc([N+](=O)[O-])c1 (stereo not drawn)	i
Cc1c(Cl)cccc1NC(=O)NNS(=O)(=O)c1ccc(F)cc1	i
CCN(Cc1ccccc1)Cc1c(C)[nH]c2c(C)c(C)ccc2c1=O	5.0%
CC12CCC(C(=O)Nc3ccc4c(c3)OCCO4)(OC1=O)C2(C)C (stereo not drawn)	i
Cc1ccc(-c2csc3nc(SCc4csc(C)n4)n(-c4ccccc4)c(=O)c23)o1	1.0%
CC(C)(C)C(=O)Nc1cccc(-c2nc3ccccc3s2)c1	i
CC(NC(=S)Nc1ccc(F)c(Cl)c1)c1ccc2c(c1)OCO2 (stereo not drawn)	28.9%
C=CCn1c(N)cc(=O)nc1SCC(=O)Nc1nc(-c2ccccc2)cs1	i
Cc1ccc2nc(/C(C#N)=C\c3ccccc3OCc3ccc(C(=O)O)cc3)[nH]c2c1	2.9%
O=C(Nc1ccc(N2CCN(C(=O)c3ccc(Cl)cc3)CC2)cc1)c1ccc(Br)o1	?
O=C(NC(NC(=S)Nc1cccc(C(=O)O)c1)C(Cl)(Cl)Cl)OCc1ccccc1 (stereo not drawn)	i
O=C(Cc1ccccc1)Nc1cccc(C(=O)c2ccccc2)c1	i
CCOC(=O)c1cccc(COC(=O)c2ccccc2NC(C)=O)c1	1.8%
CC(C)C(=O)NCCc1nc2ccccc2n1CCCOc1ccc(Cl)cc1	i
CCOc1ccc(NC(=O)Nc2ccc(CC(=O)O)cc2)cc1	0.6%
Cc1ccc(OCC(=O)Nc2ccc(S(=O)(=O)Nc3ccccc3)cc2)c(Br)c1	i
O=C(Cn1c(C(F)(F)F)nc2ccccc21)N1CCc2ccccc2C1	i

A portion of the library; the hit share may differ from the screen's.
